Source: PubChem
Y pestis TopoI: Yersinia pestis topoisomerase I inhibitors, primary screen, biochemical, cleavage product accumulation, plate reader, single point; DNA topoisomerase I (Yersinia pestis CO92); Y. pestis Topo-I cleavage product accumulation; activity, % at 10 µM; 0.064% of 360,000 active; AID 504884, 2011; in the data active = activity above about 50%, passing the limit was not always enough; note: inactives centre near 2
PriA SSB inh: inhibitors of Klebsiella pneumoniae PriA binding to SSB C-terminal tail, primary screen, biochemical, AlphaScreen; inhibition, % at 33 µM; AlphaScreen SSBct-PriA binding, biotinylated peptide; 0.6% of 430,000 active; PriA–SSB C-terminal tail interaction (Klebsiella pneumoniae); in the data active = inhibition mostly above about 37%, no sharp cut-off; inactive = mostly below about 20%;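 note: plate controls were negative control peptide for no effect and reference peptide for full effect; strong numbers were not always called active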
PrPC TRFRET: inhibitors of human cell surface prion protein PrPC, primary screen, cell-based, TR-FRET. 0.43% of 370,000 active. inhibition, % at 13.8 µM. TR-FRET read-out. Major prion protein (Homo sapiens), P04156; in the data active = inhibition above about 24%; note: 0% = median of the test wells and 100% = reference compound wells
3CLpro inhibitor: SARS-CoV 3CLpro protease inhibitors, primary screen, biochemical, quenched FRET. Replicase polyprotein 1ab (Severe acute respiratory syndrome coronavirus), P0C6X7. recombinant SARS-CoV 3CLpro, quenched FRET peptide cleavage. inhibition, % at 6 µM. 0.14% of 290,000 active; in the data active = inhibition above about 12%
DUSP3 inh: VHR1 phosphatase inhibitors, primary screen, biochemical, absorbance, uHTS; Dual specificity protein phosphatase 3 (Homo sapiens), P51452; recombinant VHR phosphatase, pNPP absorbance; inhibition, % at 13.3 µM; 0.52% of 290,000 active; in the data active = inhibition above about 50%; note: some compounds called inactive have numbers as strong as hits
Target sequence (P51452 whole entry, looked up): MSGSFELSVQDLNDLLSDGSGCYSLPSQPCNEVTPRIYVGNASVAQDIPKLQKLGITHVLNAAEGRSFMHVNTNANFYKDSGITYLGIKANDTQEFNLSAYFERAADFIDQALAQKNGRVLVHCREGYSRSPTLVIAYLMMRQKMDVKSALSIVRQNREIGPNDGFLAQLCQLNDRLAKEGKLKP
BH1578 lux ind: inducers of Vibrio cholerae quorum light production without autoinducers, primary screen, BH1578 luxS cqsA deficient, single point | V. cholerae BH1578 lux reporter, luminescence, 6 h | activation, % at 18.7 µM | 0.16% of 350,000 active; in the data active = activation mostly above about 9.7%, no sharp cut-off; note: not every result past the cut was called active; inactives centre near 0; reference of the scale not given here
CCHF vOTU inh: CCHFV vOTU protease inhibitors, primary screen, biochemical, Pep-AMC substrate, fluorescence | Crimean-Congo hemorrhagic fever virus L polyprotein viral ovarian tumor (vOTU) protease … | inhibition, % at 11.5 µM | 0.55% of 370,000 active | AID 651958, 2012; in the data active = inhibition above about 30%; note: 0% = vehicle wells with enzyme and 100% = no enzyme wells
TcdB inh: TcdB glycohydrolase inhibitors, primary screen, biochemical, single point, plate reader; Toxin B (Clostridioides difficile), P18177; TcdB glycohydrolase enzymatic assay; inhibition, % at 9.99 µM; 0.24% of 350,000 active; AID 652162, 2013; in the data active = inhibition above about 10%
Rv3671c protease: Rv3671c serine protease inhibitors, primary screen, biochemical, fluorescence polarization, M. tuberculosis H37Rv. inhibition, % at 5.96 µM. 0.048% of 320,000 active. P9WHR9; in the data active = inhibition above about 38%;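 note: extracellular domain of Rv3671c used as enzyme; 0% = enzyme with DMSO and 100% = no enzyme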
Active calls of the source: *; i = inactive; . = not tested or not shown. A portion of the library, so the mix of outcomes need not match the whole.

| mol | Y pestis TopoI | PriA SSB inh | PrPC TRFRET | 3CLpro inhibitor | DUSP3 inh | BH1578 lux ind | CCHF vOTU inh | TcdB inh | Rv3671c protease |
| --- | --- | --- | --- | --- | --- | --- | --- | --- | --- |
| COC(=O)C1=C(C)N(C(C)c2ccccc2)C(=O)C1 (stereo not given) | 4 | 10 | 2 | 7 | 0 | -0.1 | 7 | -0.6 | 5 |
| CCOC(=O)CN1CC23C=CC(O2)C(C(=O)NC2CCCCC2)C3C1=O (stereo not given) | 2 | -8 | -2 | 3 | 23 | 4.8 | 5 | . | 10 |
| COc1ccc(NC(=S)Nc2ccccc2)cn1 | 5 | -9 | -1 | -4 | -4 | -0.4 | -11 | 0.8 | 9 |
| Cc1nc(NS(=O)(=O)c2ccccc2)sc1NC(=O)OC(C)C | -6 | -12 | 1 | 1 | 5 | -7.1 | -3 | . | -4 |
| CN1CCN(C(=S)c2cn(Cc3ccccc3F)c3ccccc23)CC1 | 20 | 8 | 2 | 0 | -1 | i | 12 | 2.1 | 1 |
| CCC(=O)N1CCc2cc(S(=O)(=O)NCCC(=O)N3CCN(c4cccc(C)c4)C(C)C3)ccc21 (stereo not given) | 28 | 16 | 16 | 3 | -10 | i | 6 | -3.9 | -5 |
| CC(C)CCN1CCN=C1N(C)C | 1 | -6 | 2 | . | . | i | -2 | 0.4 | -9 |
| O=C(CCN1CCN(c2ccccc2)CC1)c1ccc(Cl)cc1 | -2 | 7 | 4 | -6 | 10 | -1.2 | 4 | 0.9 | -7 |
| CSc1ccc(S(=O)(=O)N2CCC(C(=O)Nc3ccc(NC(C)=O)cc3)CC2)cc1 | 5 | -4 | -2 | 0 | -12 | -0.1 | 12 | -4.6 | -12 |
| CCc1nc2ccc(C(=O)N3CCN(c4cc(C)ccc4C)CC3)cc2nc1CC | -7 | 6 | 2 | 3 | 11 | i | 26 | 1.0 | 0 |
| Cc1ccc(CC2CC(=O)N(c3ncccn3)C2=O)cc1 (stereo not given) | 7 | -14 | 8 | 3 | 17 | 0.0 | -4 | 1.6 | 5 |
| O=S(=O)(Nc1ccc(S(=O)(=O)N2CCCCC2)cc1)c1cccs1 | 0 | -6 | 6 | -3 | -5 | -0.3 | 1 | . | -3 |
| O=C(Nc1nc2ccc(Cl)cc2s1)C1CCCO1 (stereo not given) | -4 | -2 | 3 | -3 | 2 | -5.9 | -9 | . | -2 |
| COC(=O)c1cc(CSc2nc3ccc(C)cc3[nH]2)oc1C | -1 | 5 | 3 | -1 | 0 | i | -5 | . | 4 |
| Cc1ccc(S(=O)(=O)N(c2nc(NC(C)C)nc(NC(C)C)n2)n2cnnc2)cc1 | 3 | 1 | -2 | -4 | -5 | -0.3 | 3 | 0.5 | 5 |

Arranged by SMILES length (highest first): some entries from above
| mol | Y pestis TopoI | PriA SSB inh | PrPC TRFRET | 3CLpro inhibitor | DUSP3 inh | BH1578 lux ind | CCHF vOTU inh | TcdB inh | Rv3671c protease |
| --- | --- | --- | --- | --- | --- | --- | --- | --- | --- |
| CSc1ccc(S(=O)(=O)N2CCC(C(=O)Nc3ccc(NC(C)=O)cc3)CC2)cc1 | 5 | -4 | -2 | 0 | -12 | -0.1 | 12 | -4.6 | -12 |
| CCc1nc2ccc(C(=O)N3CCN(c4cc(C)ccc4C)CC3)cc2nc1CC | -7 | 6 | 2 | 3 | 11 | i | 26 | 1.0 | 0 |
| CCOC(=O)CN1CC23C=CC(O2)C(C(=O)NC2CCCCC2)C3C1=O (stereo not given) | 2 | -8 | -2 | 3 | 23 | 4.8 | 5 | . | 10 |
| O=S(=O)(Nc1ccc(S(=O)(=O)N2CCCCC2)cc1)c1cccs1 | 0 | -6 | 6 | -3 | -5 | -0.3 | 1 | . | -3 |
| CN1CCN(C(=S)c2cn(Cc3ccccc3F)c3ccccc23)CC1 | 20 | 8 | 2 | 0 | -1 | i | 12 | 2.1 | 1 |
| Cc1nc(NS(=O)(=O)c2ccccc2)sc1NC(=O)OC(C)C | -6 | -12 | 1 | 1 | 5 | -7.1 | -3 | . | -4 |
| COC(=O)C1=C(C)N(C(C)c2ccccc2)C(=O)C1 (stereo not given) | 4 | 10 | 2 | 7 | 0 | -0.1 | 7 | -0.6 | 5 |
| Cc1ccc(CC2CC(=O)N(c3ncccn3)C2=O)cc1 (stereo not given) | 7 | -14 | 8 | 3 | 17 | 0.0 | -4 | 1.6 | 5 |
| O=C(Nc1nc2ccc(Cl)cc2s1)C1CCCO1 (stereo not given) | -4 | -2 | 3 | -3 | 2 | -5.9 | -9 | . | -2 |
| COc1ccc(NC(=S)Nc2ccccc2)cn1 | 5 | -9 | -1 | -4 | -4 | -0.4 | -11 | 0.8 | 9 |
